HCMV UL50-53 inh: inhibitors of HCMV UL50-UL53 nuclear egress complex interaction | AID 1918969 | inhibition, % (test concentration not listed) | HTRF UL50-UL53 interaction, normalized percent inhibition | actives 0.15% (n = 190,000);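 active = both replicates at 50% or more, plus weaker picks with an unusually low signal ratio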;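 note: stock transfer was 100 nL into about 20 µL; 0% = negative control wells and 100% = wells with untagged competitor protein; inactives centre near -12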
An asterisk follows results filed as active; & = joins results of further samples.

SMILES	HCMV UL50-53 inh
O=C(c1ccc(Cl)cc1)N(Cc1ccc(Cl)cc1)C1CCS(=O)(=O)C1 (configuration not stated)	-6
CCOc1ccc(C2C(C#N)=C(SC)NC(=O)C2C(=O)OC)cc1 (configuration not stated)	-6
c1cnc2ccc(-c3ccc4ncccc4c3)cc2c1	-66
COc1cc(CCC(C)=O)ccc1O	5
Cc1ccc(Cn2ncc3c(N4CCC(C)CC4)ncnc32)cc1	-12
CCn1c(=NC(=O)c2cccs2)sc2cc(Cl)ccc21	3
CCCCC/C=C\C/C=C\C/C=C\C/C=C\CCCCN1C(=O)C=CC1=O	-35&-35
Cc1ncc2ccccc2c1C#N	-31
CC(C)(C)C(=O)Nc1nc(COc2ccccc2)cs1	3
O=C(O)CSCC(=O)NC1CCSC1=O (configuration not stated)	6&-60
Nc1c(C(=O)Nc2ccccc2)sc2nc3c(cc12)C(=O)CCC3	-15
O=C(NCCCc1nc2ccccc2[nH]1)c1cccs1	3
CC(C)=CCC/C(C)=C/CC/C(C)=C/CC[C@]1(C)CCc2cc(O)cc(C)c2O1	-24&-24
CC(C)c1cc2c(c(O)c1O)C13CCCC(C)(C)C1CC2OC3=O (configuration not stated)	-7&-7
Clc1cc2c(c(Cn3cnc4ccccc43)c1)OCOC2	-9
CC(=O)NC(c1ccccc1)c1nc2ccccc2[nH]1 (configuration not stated)	-1
COc1ccc(C2C(C#N)=C(SC)NC(C)=C2C(=O)Nc2ccccc2C)cc1OC (configuration not stated)	-11
Nc1nccc(-c2ccccc2OCc2ccc(Cl)cc2)n1	-2
COC(=O)c1ccc(CSc2ncnc3ccccc23)o1	3
N/N=C(\N)c1ccc(C(F)(F)F)cn1	-25
CCOC(Cn1c(CO)nc2ccccc21)OCC	14&-11
O=c1cc(Nc2ccc(Cl)cc2)nc(COc2ccccc2)[nH]1	9
COC(=O)c1ccccc1Sc1c(-c2ccccc2)nc2ncccn12	-1
COc1cc2c(cc1OC)C(COc1cc(C)cc(C)c1)NCC2 (configuration not stated)	-10
CCC(=O)Nc1sc2c(c1C(N)=O)CCCCC2	0
O=C1CN(C(=O)c2ccncc2)CCN1Cc1ccc2c(c1)OCO2	-20&-20
CCCCC[C@H](O)/C=C/C=C\C=C\C=C\[C@@H](O)[C@@H](O)CCCC(=O)O	-10
CC(C)n1cnc2c(Nc3ccc(C(=O)O)cc3)nc(Cl)nc21	11
O=C(Nc1nc2ccc(Br)cc2s1)c1ccc(N2C(=O)CCC2=O)cc1	2
COc1ccc(-c2c(-c3ccc(O)cc3O)n[nH]c2C)cc1	-10
Cc1nn(C)c(C)c1-c1ccnc(NCCc2nc3ccc(Cl)cc3[nH]2)n1	-12&-12
CCc1cc(C2NNC(C)C2c2ccc3c(c2)OCCO3)c(O)cc1O (configuration not stated)	2
O=C(CS(=O)(=O)c1cn(Cc2ccc(F)cc2)c2ccccc12)N1CCCCC1	-15
Cc1ccccc1N1CCN(S(=O)(=O)CC23CCC(C[C@@H]2NC(=O)[C@@H](N)CCS(C)(=O)=O)C3(C)C)CC1 (some centres not stated)	1
CC(=O)Nc1ccccc1-c1nc2ccccc2o1	6
O=C1CCC(C(=O)N2CSCC2C(=O)O)N1 (configuration not stated)	-6&-42
COc1ccc(Cl)cc1S(=O)(=O)NCc1ccco1	5
Cc1ccccc1N1CCCN(C(=O)CCC(C)C)CC1	-12
CCOC(=O)c1cc(C#N)c(N2CCC(C(=O)OCC)CC2)nc1C(F)(F)F	-11
O=C(/C=C/c1ccco1)NCCc1ccccc1	-28
CC(C)c1ccccc1S(=O)(=O)c1cc(N)c2ncccc2c1[N+](=O)[O-]	-26
Cc1cccc2nc(COc3ccc(Cl)cc3)cn12	-6
C=C(C)[C@@H]1CC[C@]2(CO)CC[C@]3(C)[C@H](CC[C@@H]4[C@@]5(C)CC[C@H](O)C(C)(C)[C@@H]5CC[C@]43C)[C@@H]12	-16
COCC(NC(=O)c1cnc(C)s1)C(=O)NC(COC)C(=O)NC(Cc1ccccc1)C(=O)C1(C)CO1 (configuration not stated)	-13
COc1c(C)cnc(Cn2cnc3c(Cl)nc(N)nc32)c1C	-10
O=C(CSC1CCCCC1)N1CCN(c2ccccc2)CC1	5&-1
CC(C=CC(=O)NO)=CC(C)C(=O)c1ccc(N(C)C)cc1 (configuration not stated)	-35
CCN1C(=O)c2cccc3c(S(=O)(=O)N4CCN(C)CC4)ccc1c23	-80
Nc1nc(-c2cccs2)c(CC(=O)O)s1	-17
NC(=O)c1ccsc1NC(=O)c1cc(=O)c2ccccc2o1	-12
CCOC(=O)C1CCN(Cc2cn3c(-c4ccc(Br)cc4)nnc3s2)CC1	10&2
CCOc1cccc2sc(NC(=O)CC)nc12	-10
CCN1CCN(Cc2ccc(NC(=O)c3ccc(C)c(NC(=O)N4CCNC4=O)c3)cc2C(F)(F)F)CC1	5
CCOc1ccccc1C(=O)NCCn1ccc2ccccc21	-20
CC#CCC(C)[C@H](O)/C=C/[C@@H]1[C@H]2C/C(=C\CCCC(=O)O)C[C@H]2C[C@H]1O (some centres not stated)	-25&-25
NC(=O)c1oc2ccccc2c1NC(=O)C1CC1	-16
O=C(O)CCNc1ccccc1C(=O)O	-1
Cc1ccc(C(=O)O)c(C(=O)Nc2nccs2)c1	18
CCCn1nc(C(=O)N2CCCCC2)c2c1CCC(NCc1cccnc1)C2 (configuration not stated)	1
CN(CC1Cc2ccccc2O1)C(=O)Nc1nc(-c2ccccc2)ns1 (configuration not stated)	6
The list goes on.
SMILES	HCMV UL50-53 inh
COc1ccc(-n2cc3ccsc3c2)c(OC)c1	6
Cc1ccc(-n2ncc3c(NCCO)ncnc32)c(C)c1	-7
C=CS(=O)(=O)c1cccc(Br)c1	12
CC(C)CN(CC(O)C(Cc1ccccc1)NC(=O)OC1CCOC1)S(=O)(=O)c1ccc(N)cc1 (configuration not stated)	0
Cc1[nH]c2ccccc2c1CCNC(=O)c1cccs1	0
O=c1c(-c2nc3ccccc3s2)coc2cc(O)ccc12	-25
Cc1ccc2c(c1)C(c1ccc(F)cc1)N(C(=O)c1ccc(Br)o1)CC(=O)N2 (configuration not stated)	1
CC1=C(C(=O)Nc2ccccc2C)C(c2ccco2)C(C#N)=C(SCC(=O)c2ccccc2)N1 (configuration not stated)	8
CCCCCCCCCCCCCC(=O)OCC	-7&-7
Cc1c(C)n(CC(O)CN2CCCCC2C)c2ccccc12 (configuration not stated)	-7
CC/C=C\C/C=C\C/C=C\C/C=C\CCCCCCC(=O)O	-6&-6
O=C(CN1C(=O)/C(=C/c2cccc(Br)c2)SC1=S)Nc1ccccc1C(F)(F)F	-11
Oc1cccc(-c2nc3ccccc3[nH]2)c1	6
O=C(Nc1ccc(-c2nc3ccccc3[nH]2)cc1)C1=COCCO1	-1
COc1ccc(-c2csc(NC(=O)Cc3ccccc3)n2)cc1OC	-25
CC(=O)Nc1nc(-c2ccccc2)cs1	-11
CC(=O)Nc1sccc1C#N	-26
Clc1ccc(Cn2cccn2)cn1	-2
Cc1ccccc1-c1cccc(N2CCC(N3CCN(C)C(C)C3)CC2)c1 (configuration not stated)	3
CC(C)N1C(=O)CCC1C(=O)N1CCCc2ccccc21 (configuration not stated)	-12
Clc1ccc2c(c1)c(-c1ccccc1)nc1nnnn12	-32
CN(C)S(=O)(=O)Nc1ccc(N)cc1	0
COC(CC(=O)O)c1nc2ccccc2s1 (configuration not stated)	-6
CCOC(=O)c1c(C)n(CC)c2ccc(OC(=O)c3ccco3)cc12	-8
COc1ccc(C(=O)Nc2ccc(O)c(-c3nc4ccccc4s3)c2)c(OC)c1	-4
CSc1nc2ccc(NC(=O)CN3C(=O)CCC3=O)cc2s1	-11
O=C(/C=C/c1cccs1)Nc1nc2c(s1)CCCC2	-21
Cc1ccc2nc(NC(=O)c3ccccc3C)sc2c1	-16
CNc1oc(-c2ccccc2)nc1C#N	-23
CCCCCCCCCCCCCCCC(=O)OC1C(SC)OC(C(NC(=O)C2CC(CCC)CN2C)C(C)Cl)C(O)C1O (configuration not stated)	22
Cc1nc2sc(C(c3ccccc3)N3CCCCC3)c(O)n2n1 (configuration not stated)	-9
C=CC(=O)Nc1cccc(Oc2ncnc3[nH]cc(-c4cnc5ccccc5c4)c23)c1	-13
COC(=O)[C@@H](NC(=O)c1cc(C)on1)C(C)C	-12
CCCCCCCC/C=C\CCCCCCCC(=O)c1nc2ncccc2o1	-19&-19
CSc1nnc(COc2cccc3ccc(C)nc23)n1C	-16
CC(=O)OCCNC(=O)c1cccnc1	-12
COc1cc2c3cc1Oc1c(OC)c(OC)cc4c1[C@@H](Cc1ccc(OC(=O)c5ccc([N+](=O)[O-])cc5)c(c1)Oc1ccc(cc1)C[C@@H]3N(C)CC2)N(C)CC4	-41
CCCCC[C@H](O)/C=C/[C@@H]1[C@H](C/C=C\CCCC(=O)O)[C@H](O)C[C@H]1O	-11&-11
Cc1oc2cc(O)cc(O)c2c(=O)c1-c1ccc2c(c1)OCCCO2	-17
CCCC(C(=O)O)N1C(=O)/C(=C/c2ccc(C)cc2)SC1=S (configuration not stated)	-16
CC(=O)Nc1ccc(NC(=O)c2c(F)c(F)c(F)c(F)c2F)cc1	2
COc1ccc(Cl)cc1N/C=C(\C#N)c1nc(-c2ccccc2)cs1	1
NC(=O)C1CCCc2c1[nH]c1ccc(Cl)cc21 (configuration not stated)	4
COc1ccc(Cl)cc1N1CC(c2nc3ccccc3[nH]2)CC1=O (configuration not stated)	-19
COc1ccc(N/C=C(\C#N)c2ccc(Cl)cc2)cc1	-3

3 compounds out of the list, ordered by count of non-hydrogen atoms, low to high:
SMILES	HCMV UL50-53 inh
COC(=O)[C@@H](NC(=O)c1cc(C)on1)C(C)C	-12
Cc1nc2sc(C(c3ccccc3)N3CCCCC3)c(O)n2n1 (configuration not stated)	-9
COc1cc2c3cc1Oc1c(OC)c(OC)cc4c1[C@@H](Cc1ccc(OC(=O)c5ccc([N+](=O)[O-])cc5)c(c1)Oc1ccc(cc1)C[C@@H]3N(C)CC2)N(C)CC4	-41

Further records.
SMILES	HCMV UL50-53 inh
CSc1nc2nc(-c3ccc4c(c3)CCC4)ccn2n1	-10
CCCCCCCC/C=C\CCCCCCCC(=O)N[C@@H](CO)Cc1ccc(O)cc1	-5&-17&-17
O=C(OCC(=O)c1cccs1)c1ccc(O)cc1	-11
Cc1nn(C)c(C)c1-c1ccnc(NCCOCCO)n1	42&42
CN1CCc2c(OCC(=O)N3CCCCCC3)cccc2C1=O	5
Cc1cccc2c(C(=O)N(C)C(C)C)cc(-c3cnc(C(C)(C)C)nc3)nc12	-10
COc1ccc(C2CC(=O)c3c(O)cc(O)cc3O2)cc1O (configuration not stated)	3
Cc1sc(/N=C/c2ccc(O)cc2)c(C#N)c1C	-18
O=C(c1cn2cccnc2n1)N1CCCC(Cn2cc(C3CCCC3)nn2)C1 (configuration not stated)	-8
Cc1cccc(-n2nc3c(c2NC(=O)COc2ccc(Cl)cc2Cl)CS(=O)C3)c1C (configuration not stated)	9
O=C(COc1ccc(Oc2ccccc2)cc1)NCc1ccccc1	-2
CC(=Nc1cc(C)[nH]n1)C1CCOC1=O (configuration not stated)	-6
O=C(NCCSc1c[nH]c2ccccc12)c1c(F)cccc1F	-11
O=C(O)c1ccc(-c2ccccc2C(F)(F)F)o1	-11
COc1ccc(NC(C)=O)cc1C#N	-26
COc1cccc(-c2noc(Cc3ccc4c(c3)OCO4)n2)c1	-25&-25
CCOc1ccc(-c2nc3ccc(C)cc3[nH]2)cc1	-4
COC(=O)c1cc(Br)ccc1NC(=O)c1cc2ccccc2oc1=O	9&-14
COc1ccc(OC)c(-c2nc3ccccc3o2)c1	-26&-26
COc1ccccc1N1CCN(CCn2c(=O)[nH]c3c([nH]c4ccccc43)c2=O)CC1	-11
CCC(CC)(CCC#N)CNC1CCOC(C)(C)C1 (configuration not stated)	12
CC(C)(N)c1ccc(-c2nc3ccccc3nc2-c2ccccc2)cc1	6&-19&-45
Cc1ccc(-c2nnc(NC(=O)C3CC3)s2)cc1	-4
N#Cc1ccc(-c2ccc(O)cc2)cc1	-17
COc1cccc(CC2(O)C(=O)Nc3ccccc32)c1 (configuration not stated)	-18
CC(C)N(C(=O)Cn1c(=N)sc2ccccc21)c1ccccc1	-18
CC(=O)Nc1ccc(S(=O)(=O)N2CCSC2c2ccccc2)cc1 (configuration not stated)	-10
CC(=O)NCCCS(=O)(=O)O	-69
Cc1c(C#N)c(Sc2ccccc2Cl)nc2ccccc12	-14
NC(=O)c1ccsc1N	-52

Filtered by structure: the compounds so far with a Cl atom
SMILES	HCMV UL50-53 inh
O=C(c1ccc(Cl)cc1)N(Cc1ccc(Cl)cc1)C1CCS(=O)(=O)C1 (configuration not stated)	-6
CCn1c(=NC(=O)c2cccs2)sc2cc(Cl)ccc21	3
Clc1cc2c(c(Cn3cnc4ccccc43)c1)OCOC2	-9
Nc1nccc(-c2ccccc2OCc2ccc(Cl)cc2)n1	-2
O=c1cc(Nc2ccc(Cl)cc2)nc(COc2ccccc2)[nH]1	9
CC(C)n1cnc2c(Nc3ccc(C(=O)O)cc3)nc(Cl)nc21	11
Cc1nn(C)c(C)c1-c1ccnc(NCCc2nc3ccc(Cl)cc3[nH]2)n1	-12&-12
COc1ccc(Cl)cc1S(=O)(=O)NCc1ccco1	5
Cc1cccc2nc(COc3ccc(Cl)cc3)cn12	-6
COc1c(C)cnc(Cn2cnc3c(Cl)nc(N)nc32)c1C	-10
Clc1ccc(Cn2cccn2)cn1	-2
Clc1ccc2c(c1)c(-c1ccccc1)nc1nnnn12	-32
CCCCCCCCCCCCCCCC(=O)OC1C(SC)OC(C(NC(=O)C2CC(CCC)CN2C)C(C)Cl)C(O)C1O (configuration not stated)	22
COc1ccc(Cl)cc1N/C=C(\C#N)c1nc(-c2ccccc2)cs1	1
NC(=O)C1CCCc2c1[nH]c1ccc(Cl)cc21 (configuration not stated)	4
COc1ccc(Cl)cc1N1CC(c2nc3ccccc3[nH]2)CC1=O (configuration not stated)	-19
COc1ccc(N/C=C(\C#N)c2ccc(Cl)cc2)cc1	-3
Cc1cccc(-n2nc3c(c2NC(=O)COc2ccc(Cl)cc2Cl)CS(=O)C3)c1C (configuration not stated)	9
Cc1c(C#N)c(Sc2ccccc2Cl)nc2ccccc12	-14

Source: PubChem (ICCB-Longwood Screening Facility, Harvard Medical School)

The list is partial, so the mix of outcomes need not match the whole.
